Bioassay records (PubChem BioAssay)
Mtb hypoxia inh – reduces hypoxia-regulated biosensor signal in M. tuberculosis | 300,000 tested, 0.1% active | fluorescence inhibition, % (test concentration not listed) | M. tuberculosis hypoxia-regulated fluorescent reporter, fluorescence | AID 1159583;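 active = 35 to 45% if threefold the growth effect, above 45% if 1.5-fold the growth effect; inactive = the rest, general growth blockers included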;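 also: wells of about 50 µL received 100 nL stock; 0% = vehicle wells and 100% = reference inhibitor wells; whole bacteria with a GFP reporter of the hypoxia response; strong numbers were not always called active; many hits fall short of the cut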
ugtP null kill – kills S. aureus RN4220 lacking UgtP | S. aureus RN4220 ugtP deletion, OD600 growth, 16 h; some inactives read as strong as hits | growth inhibition, % (no concentration beside the values) | 330,000 tested, 0.54% active | AID 1259309;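 active = z-score under -3 and OD600 up to 0.15 on both plates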;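 also: plate controls were untreated wells for no effect and antibiotic for full effect; wells of about 80 µL received 100 nL stock; the first replicate is given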
BJeLR viability – BJeLR cell viability loss; 300,000 tested, 0.17% active; inhibition, % (no concentration beside the values); BJeLR (HRASV12) viability, CellTiter-Glo ATP luminescence, 48 h; reference of the scale not given here; AID 1554;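 active = replicate mean above 50%; inconclusive = above 50% but judged a plate artefact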;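 also: 50 nL library stock added to about 25 µL; numbers are from one replicate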
Autofluor counter – counter-screen for toxin protease inhibitors: compound fluorescence. compound autofluorescence counterscreen, microsphere flow cytometry; hits give high values. fluorescence intensity (concentration not given with the values). 360,000 tested, 3.1% active. AID 624483;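 active = at least 3 SD above the mean of all compounds, about 16000 in these data; inconclusive = too few beads counted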;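 also: 100 nL of 1 mM stock went into each well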
RN4220 kill – kills Staphylococcus aureus RN4220; inhibition, % (no concentration beside the values); S. aureus RN4220 growth, OD600, 16 h; 330,000 tested, 0.33% active;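 active = z-score of -3 or lower and OD600 up to 0.18 on both plates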;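 also: plate controls were untreated cells for no effect and reference antibiotic for full effect; stock transfer was 100 nL into about 80 µL; one replicate is shown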
PrP UTR inh – suppresses PrP 5' UTR mRNA reporter expression | cell-based PrP 5' UTR mRNA reporter, plate reader | inhibition, % (no concentration beside the values) | 340,000 tested, 0.35% active;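 active = every replicate at 50% or more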;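 also: 0 = median of the neutral control wells; tested in H4 reporter cells; numbers are from one replicate; inactives centre near -14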
Mtb hypoxia inh growth – recorded beside Mtb hypoxia inh, whose call it bears; growth inhibition, %; measured here: M. tuberculosis growth (absorbance);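 0% = vehicle and 100% = reference antibiotic; read after six days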
Starred values were filed as active, the others as inactive; u = inconclusive; x = no result given; & = joins results of further samples.

SMILES	Mtb hypoxia inh	Mtb hypoxia inh growth	ugtP null kill	BJeLR viability	Autofluor counter	RN4220 kill	PrP UTR inh
O=c1cc(N2CCc3ccccc3C2)[nH]c(=O)n1-c1ccc(Br)cc1	0	5	-4	1	10631	0.5	13
CCN(CC)c1ccc2c(c1)C(=O)N(C)C2=O	20	-19	-7	2	2893	-18	-30
COc1ccc(-c2cn3cc(C(=O)NN)ccc3n2)cc1	1	8	10	17	3767	16	-26
O=C(O)C1(c2ccccc2)CCN(S(=O)(=O)c2ccc(Cl)cc2)CC1	8	-2	16	2	4295	8.5	3
COc1ccc(S(=O)(=O)Nc2noc3ccccc23)cc1OC	-15	1	-10	6	3553	-5.2	x
OCCC1CN(Cc2cnc(-c3ccccc3)s2)CCN1C1CCCCC1 (stereo not drawn)	7	-4	-7	2	4876	1.4	-12
CC(=O)N(c1nc(CCl)cs1)c1c(C)cc(C)cc1C	5	4	-1	-6	1970	4.1	-4
Cc1nnsc1-c1nc2ccccc2[nH]1	x	x	4	5	2916	4.7	-10
O=C(NCCc1ccc(Cl)cc1)c1nnc(Cc2ccc(Cl)cc2)o1	-2	3	-9	-2	5724	2.6	-105
Cc1cc(C(=O)OCC(=O)Nc2nnc(C(C)C)s2)c2ccccc2n1	7	-1	12	-2	2102	6.7	-3
N#CCCN(C(=O)COC(=O)c1ccc2c(=O)n3c(nc2c1)CCC3)c1ccccc1	5	9	4	4	u	3.6	-16
COc1ccc(C2CC=C(C(=O)O)CN2S(=O)(=O)c2ccc(Cl)cc2)cc1 (stereo not drawn)	-2	1	9	x	x	9.2	x
COc1cc2c(c(OC)c1OC)-c1ccc(N(C)CC(OC)OC)c(=O)cc1[C@@H](NC(C)=O)CC2	1	3	3	50	3672	4.3	26
O=C(Nc1ccncc1)c1cc(S(=O)(=O)N2CCN(c3ccccc3)CC2)ccc1Cl	7	3	4	7	7125	4.7	-20
O=C1CC(NS(=O)(=O)c2cccnc2)CN1c1cccc(F)c1 (stereo not drawn)	5	8	6	-2	5010	4.0	5
Cc1nc2c3ccccc3nc(NNC(=O)CCC(=O)NCCN3CCN(c4ccccc4F)CC3)n2n1	-9	2	4	-14	5546	4.5	-14
Cc1nn(CCC(=O)NNC(=S)NCC(C)C)c(C)c1Br	4	3	4	x	9989	4.4	-18
CCc1n[nH]c(=S)n1N=Cc1ccccn1	15	-1	6	x	x	2.7	x
CC(C)COCC(O)CCC(=O)NNC(=S)Nc1ccccc1 (stereo not drawn)	6	-4	-1	-7	1925	3.5	-4
Cc1cc(OCc2cc(C(=O)N(C)CCc3cnn(C)c3)no2)cc(C)c1Cl	1	0	-3	0	5689	6.2	-62
Cc1cc(C)cc(NC(=O)Cn2cc(C=O)c3ccccc32)c1	-4	5	-1	-2	3964	-2.8	4
CC(NC(=O)NCc1ccc(F)cc1)C(=O)O (stereo not drawn)	7	5	4	x	x	6.1	x
COc1cccc(OC)c1C(=O)NC(C)c1ccccc1 (stereo not drawn)	18	8	-1	2	3569	-8.8	-9
COc1ccc(C(C#N)Nc2ccc(C)cc2)cc1 (stereo not drawn)	6	21	-4	2	6352	3.5	-14
COc1ccc(S(=O)(=O)N2CCN(C/C=C/c3ccccc3)CC2)cc1NC(C)=O	1	-6	-1	5	4380	4.7	-13
Cc1ccc(OCC(=O)NCCNC(=O)c2ccncc2)cc1	5	1	5	1	3077	0.5	-15
CCn1cc(-c2csc(N)n2)c(C)n1	8	5	-1	21	4002	2.0	-32
CCOCCCNC(=O)C(NC(=O)Cc1c[nH]c2ccccc12)c1ccc(OC)cc1 (stereo not drawn)	2	3	2	-4	3283	4.5	-9
CN(CCOc1ccccc1)S(=O)(=O)c1ccc2oc3ccccc3c2c1	-2	-4	30	-8	2377	8.2	35
O=C(NCCn1cc(SCC(=O)N2CCOCC2)c2ccccc21)c1ccccc1	11	5	-2	1	4666	-3.0	-1
CN1CCN(P(=O)(c2ccccc2)c2nc3ccccc3s2)CC1 (stereo not drawn)	1	1	6	1	5200	2.4	-12
CCOc1ccc(S(=O)(=O)N(CC)CC(=O)NCc2ccco2)cc1C	-18	-9	-2	-10	4767	2.0	7
Cc1ccccc1-n1nc(C)c2cc(C(=O)N3CCN(S(=O)(=O)c4ccc(Cl)cc4)CC3)sc21	x	x	0	-8	3044	-0.7	-10
COc1cccc(NC(=O)CSc2nc3ncc(Br)cc3[nH]2)c1	-2	-1	-7	-8	5651	0.7	-1
Cc1ccc(S(=O)(=O)N(CC(O)CN2CCOCC2)c2cccc([N+](=O)[O-])c2)cc1 (stereo not drawn)	5	7	-7	6	5664	0.7	-2
COc1ccc(-c2c(C)n([O-])c3c([n+]2=O)CCCCC3)cc1OC	7	0	-1	0	3254	1.5	-7
Oc1ccc(-c2[nH]nc(-c3ccccc3)c2-c2nc3ccccc3[nH]2)cc1	1	-1	2	-12	5495	1.9	-20
O=C(Nc1ccc(F)cc1F)c1cc2ncc(CCCl)cn2n1	5	-1	9	1	2218	-1.2	-11
NC(=O)c1cc(NC(=O)c2ccc(NS(=O)(=O)c3cccs3)cc2)cc(C(N)=O)c1	17	11	-4	-1	4428	3.8	-9
C=CCC(Cc1ccc(F)cc1)C(=O)OCC1CCCN1C(=O)C(CC=C)CC(=O)N(CCO)Cc1ccccc1 (stereo not drawn)	-1&8	7&4	0&-14	x	x	-0.1&3.5	x
COc1cc(C#N)c(NC(=O)CN2CCN(CCO)CC2)cc1OC	-3	-2	9	6	4153	-0.4	-26
O=C(CC1CCC1)NC(c1ccccc1)c1ccccc1	-14	1	3	1	4254	4.2	-27
COc1ccc(/C=N/NC(=O)C(C)Sc2ccccn2)cc1[N+](=O)[O-] (stereo not drawn)	x	x	x	1	4017	x	-7
O=C(NCCS(=O)(=O)NCc1ccc2c(c1)OCO2)c1ccccc1	x	x	x	16	5732	x	-3
Cc1nn(-c2ccccc2)c(Cl)c1C=NNC(=O)c1ccn[nH]1	2	-4	1	x	x	0.5	x
CC1=C(C(=O)OCc2ccccc2)C(c2ccc([N+](=O)[O-])cc2)NC(=O)N1CCCC(=O)O (stereo not drawn)	11	8	4	-2	3877	4.4	-27
COc1cc(/C=C2\NC(=S)N(C)C2=O)ccc1OCc1ccccc1F	2	4	-12	-1	3152	11	0
CSc1cccc(NC(=O)c2[nH]c(C)c(C(C)=O)c2C)c1	-8	-1	-10	-9	3869	0.6	-39
CCOc1ccc(OCc2ccc(C(=O)NCc3ccncc3)o2)cc1	8	8	10	18	7739	1.7	-33
CN(C)S(=O)(=O)c1ccc(C(=O)Nc2nnc(SCc3cccc4ccccc34)s2)cc1	6	4	12	-5	2545	20	-9
Cc1c(C)n(C(=O)CN2CCC(C(N)=O)CC2)c2ccccc12	x	x	0	6	2727	1.2	-12
O=C(CSc1nnc2ccccn12)NCCN1C(=O)CSC1=O	9	10	10	-8	2494	6.9	-6
CC(C)(C)c1cc(C(=O)NNc2ccc(OC(F)(F)F)cc2)n(Cc2ccccc2)n1	8	-3	-31	2	x	-8.4	-9
CCN(CC)S(=O)(=O)c1ccc(Nc2ccc(-c3ccc4c(c3)OCCO4)nn2)cc1	0	8	4	15	13280	3.8	-42
O=C(O)Cc1ccc(C(=O)c2ccc(Cl)cc2)s1	x	x	3	-3	4159	7.4	-11
COc1cccc(N2CCN(c3ccc4nnc(CCC(=O)Nc5ccc(F)cc5)n4n3)CC2)c1	-13	5	-5	-3	4871	-3.6	-13
O=C(CCN1C(=O)C2CC=C(Cl)CC2C1=O)N1CCCCC1 (stereo not drawn)	17	9	12	-20	4245	5.4	-10
CC1CCN(CC(=O)c2cccs2)CC1	11	3	3	-9	3151	6.7	-29
CN(C)S(=O)(=O)c1cccc(-c2csc(=Nc3ccccc3)n2CCCN2CCOCC2)c1	-8	2	8	-5	4656	1.1	-19
Cc1ccc(NC(=O)CN2C(=O)NC(=Cc3ccco3)C2=O)cc1	2	6	8&-8	x	x	5.5&-1.3	x

(listing goes on)
SMILES	Mtb hypoxia inh	Mtb hypoxia inh growth	ugtP null kill	BJeLR viability	Autofluor counter	RN4220 kill	PrP UTR inh
O=[N+]([O-])c1ccc(/C=N/NC(=S)Nc2ccccc2)o1	x	x	x	-1	2137	x	-33
O=C(NC(Cc1ccccc1)C(=O)O)/C(=C/c1ccc(Cl)cc1)NC(=O)c1ccccc1 (stereo not drawn)	4	1	9	0	2182	3.3	-22
Cc1cc(C=NNC(=O)C(=O)NCc2ccccn2)c(C)n1-c1cccc(Br)c1	3	8	-1	x	x	-1.1	x
NC(N)=Nc1nc(CCN2C(=O)c3ccccc3C2=O)cs1	2	6	-18	3	5645	3.1	-49
Cc1nc(Nc2cccc(O)c2)c2oc3ccccc3c2n1	19	0	4	-4	3281	8.4	-6
CC(=O)c1c(C)[nH]c(C(=O)COC(=O)c2cc(S(=O)(=O)N(C)c3ccccc3)ccc2Cl)c1C	1	2	12	-3	1981	2.0	-22
Cn1c(Cl)cnc1C(O)(c1ccccc1)c1ccccc1	2	7	8	-9	4817	3.5	-32
N#Cc1c[nH]n2c(=O)c3c(nc12)CCC3	-5	1	11	2	3785	4.6	-23
CCOC(=O)c1sc2nc(C)nc(N3CCN(S(=O)(=O)c4ccccc4)CC3)c2c1C	9	8	12	x	3951	1.5	-37
CCOC(=O)c1c(-c2ccccc2)csc1NC(=O)CSc1nnc(C)s1	5	4	74	6	2547	1.7	-1
O=C(O)CCC(=O)NNC(=O)c1ccc([N+](=O)[O-])cc1	10	19	5	-15	4225	5.3	-33
CCCCc1ccc(NC(=O)CSc2nc(=O)n(CCN(CC)CC)c3c2CCCC3)cc1	8	7	6	9	u	0.0	-23
OCCN1CCN(CC(O)COCC2COc3ccccc3O2)CC1 (stereo not drawn)	13	10	4	5	3240	1.1	-20
Cc1ccc(C(O)(c2ccccc2)c2ccccc2C(C)N(C)C)c(C)c1 (stereo not drawn)	14	5	-17	0	7741	18	-15
CCN1CCN(C(c2ccccc2F)c2nnnn2Cc2ccc3c(c2)OCO3)CC1 (stereo not drawn)	x	x	4	0	4946	3.2	-2
CC(=C/c1ccccc1)/C=N/Nc1nc(N2CCOCC2)nc(N2CCOCC2)n1	x	x	x	5	10146	x	2
CCc1cc(C(=O)NCC(C)(C)N2CCOCC2)sc1C	8	6	2	-2	6063	2.5	-12
O=C(COc1ccc(Br)cc1)N1CCc2ccccc21	17	9	0	2	3225	6.0	-85
O=C(Cn1c(=O)oc2ccccc21)Nc1ccc(Br)cc1	5	-1	-1	4	3384	-1.2	-18
CCN(c1ccccc1)S(=O)(=O)c1ccc(C(=O)Nc2cccc(C)n2)cc1	3	-1	-12	x	u	5.8	-5

Molecules listed so far containing a nitro group on carbon (5):
SMILES	Mtb hypoxia inh	Mtb hypoxia inh growth	ugtP null kill	BJeLR viability	Autofluor counter	RN4220 kill	PrP UTR inh
Cc1ccc(S(=O)(=O)N(CC(O)CN2CCOCC2)c2cccc([N+](=O)[O-])c2)cc1 (stereo not drawn)	5	7	-7	6	5664	0.7	-2
COc1ccc(/C=N/NC(=O)C(C)Sc2ccccn2)cc1[N+](=O)[O-] (stereo not drawn)	x	x	x	1	4017	x	-7
CC1=C(C(=O)OCc2ccccc2)C(c2ccc([N+](=O)[O-])cc2)NC(=O)N1CCCC(=O)O (stereo not drawn)	11	8	4	-2	3877	4.4	-27
O=[N+]([O-])c1ccc(/C=N/NC(=S)Nc2ccccc2)o1	x	x	x	-1	2137	x	-33
O=C(O)CCC(=O)NNC(=O)c1ccc([N+](=O)[O-])cc1	10	19	5	-15	4225	5.3	-33

(more compounds)
SMILES	Mtb hypoxia inh	Mtb hypoxia inh growth	ugtP null kill	BJeLR viability	Autofluor counter	RN4220 kill	PrP UTR inh
Cc1ccc(-n2c(O)c(C=NC3CCCC3)c(=O)[nH]c2=O)c(C)c1	x	x	3	12	2410	4.1	-8
Cc1ccc(C)c(NCc2n[nH]c(=S)n2-c2ccccc2)c1	-3	3	15	-4	2055	12	-18
CC(C)NCC(O)COCc1ccc(Cl)cc1 (stereo not drawn)	4	8	0	6	12662	2.6	-12
FC(F)Sc1nc(-c2ccccc2)c(-c2ccccc2)n1C(F)F	3	6	84	13	2460	-1.0	-32
CC(=NNc1ccc(Cl)c(C(=O)O)c1)c1cccc2ccccc12	-6	-7	-2	x	x	6.6	x
Cc1cc(C)nc(N2CCN(CC(=O)NCc3ccccc3)CC2)n1	12	8	5	-10	10392	2.0	x
COC(=O)Cc1[nH]n(-c2nc3ccccc3s2)c(=O)c1C(C)=Nc1ccc(C)cc1	13	5	-6	5	3318	6.3	92*
